T cruzi inh = T. cruzi replication inhibition; hit rate 1.4% among 300,000; inhibition, % (no concentration beside the values); T. cruzi beta-gal in NIH3T3, luminescence, 90 h;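 active = mean inhibition across valid replicates above about 55%, limit read from the data; inconclusive = mean below that limit but half or more replicates reach it; inactive = mean below it, under half of replicates reach it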;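 note: signal also drops with host cell toxicity which is not excluded here; 0% = plate median of DMSO wells and 100% = zero luminescence signal; higher percent means less beta-gal luminescence so fewer parasites; stock transfer was 50 nL into about 50 µL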
UCH37 DUB inh = human UCH37 deubiquitinating enzyme inhibition. hit rate 0.33% among 330,000. inhibition, % (no concentration beside the values). purified proteasome/UCH37, Ub-AMC cleavage fluorescence;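 active = mean of two replicates above 20%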;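 note: 0% = compound-free wells with enzyme and 100% = wells lacking proteasome; stock transfer was 100 nL into about 20 µL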
Target sequence (Q9Y5K5 whole entry, looked up): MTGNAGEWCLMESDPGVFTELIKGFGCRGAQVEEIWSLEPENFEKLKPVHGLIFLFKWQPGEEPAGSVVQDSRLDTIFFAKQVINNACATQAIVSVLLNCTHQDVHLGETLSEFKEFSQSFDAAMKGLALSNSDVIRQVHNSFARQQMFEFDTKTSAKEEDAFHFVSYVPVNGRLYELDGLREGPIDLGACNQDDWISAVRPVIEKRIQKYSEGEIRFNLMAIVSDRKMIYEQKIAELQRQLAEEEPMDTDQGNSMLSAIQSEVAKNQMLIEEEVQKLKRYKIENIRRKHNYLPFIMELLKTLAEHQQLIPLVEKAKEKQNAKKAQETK
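system = Proteasome-associated human UCH37 deubiquitinase | amount = 0.15 nM proteasome as dispensed | medium = pH 7.4 Tris-HCl (50 mM) with ovalbumin, ATP-MgCl2, DTT | incubation = 30 min preincubation with enzyme, 25 min cleavage at room temperature | detection = AMC fluorescence 355/460 nm | read-out basis = percent inhibition | controls = no-proteasome and no-compound wells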
Beta cell apopt = blocks beta cell apoptosis; protection from apoptosis, % (concentration not given with the values); INS-1E cytokine-induced death, ATP luminescence, 48 h; percent of positive-control rescue, neutral wells zero; hit rate 0.8% among 300,000;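 active = all replicates at 75% or more, or half of them and the mean; inconclusive = half reach 75% but not the mean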;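 note: 0% = cytokine-treated negative control wells and 100% = positive control rescue; higher means more ATP so stronger rescue from cytokine killing; wells of about 40 µL received 100 nL stock; the first replicate is given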
LANA-H2B inh = blocks KSHV LANA binding to histone H2A/H2B; Q9QR71; cell-free LANA-H2A/H2B peptide, fluorescence polarization; inhibition, % (no concentration beside the values); hit rate 0.6% among 320,000; AID 2629; in the data active = inhibition mostly above about 10%, no sharp cut-off; inactive = mostly below about 6.7%;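 note: stock transfer was 7.5 nL into about 10 µL; 0% = median of vehicle wells and 100% = median of positive control wells; one replicate is shown; the record names a cut of 25% in any replicate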
Bfl-1 A1 inh = inhibitors of the anti-apoptotic protein A1, read as caspase activation. hit rate 0.066% among 330,000. caspase activation, % (no concentration beside the values). MEF A1-2A-BIM cells, Caspase-Glo 3/7 luminescence, 3 h; percent of clofoctol response, vehicle zero. AID 2462;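 active = over half of replicate activation scores above 10%, or exactly half above 10 with the replicate mean above 10; inconclusive = replicate mean below 10 yet half the replicates above 10; inactive = over half of replicates below 10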;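 note: wells of about 30 µL received 50 nL stock; many hits fall short of the cut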
RanGTP-Imp inh = disruptors of Ran-importin-beta complex formation – biochemical, FRET, CFP-Ran, YFP-importin-beta, homogeneous, primary screen; cell-free CFP-Ran/YFP-importin-beta FRET ratio; hit rate 1.1% among 300,000; inhibition, % (no concentration beside the values);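 active = most replicates above 15%; inconclusive = exactly half above 15%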;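 note: 0% = DMSO wells and 100% = Ran loaded with GDP instead of GTP; wells of about 40 µL received 100 nL stock; the first replicate is given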
B2AR ag = activates human beta-2 adrenergic receptor causing internalization; P07550; Am2.2-beta2AR cells, FAP receptor internalization, flow cytometry; reference of the scale not given here; response, % (no concentration beside the values); hit rate 0.43% among 340,000;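 active = response above a set limit, near 3 SD of response in nonfluorescent compounds, cut at about 42% in these data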;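 note: stock transfer was 100 nL into about 11 µL; a reference agonist was the positive control; negative values mostly stem from fluorescent compounds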
Target sequence (P07550 whole entry, looked up): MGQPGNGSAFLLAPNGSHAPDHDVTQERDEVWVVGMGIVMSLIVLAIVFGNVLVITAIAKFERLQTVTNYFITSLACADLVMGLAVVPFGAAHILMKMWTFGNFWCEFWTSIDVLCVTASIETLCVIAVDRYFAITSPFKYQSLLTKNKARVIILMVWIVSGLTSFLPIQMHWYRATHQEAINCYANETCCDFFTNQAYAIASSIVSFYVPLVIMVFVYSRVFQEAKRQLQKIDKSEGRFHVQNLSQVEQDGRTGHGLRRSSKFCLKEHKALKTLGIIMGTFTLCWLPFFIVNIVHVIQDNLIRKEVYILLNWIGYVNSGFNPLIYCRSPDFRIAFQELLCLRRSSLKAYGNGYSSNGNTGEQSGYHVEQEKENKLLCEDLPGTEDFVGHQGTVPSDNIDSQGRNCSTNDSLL
Calb FLC = C. albicans growth modulation with fluconazole; C. albicans CaCi-2 (fluconazole-resistant clinical isolate) + fluconazole, Alamar Blue growth, 48 h; growth inhibition, % (no concentration beside the values); AID 1979; hit rate 0.57% among 300,000;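 active = most replicates above 75%; inconclusive = exactly half above 75%; inactive = most below 75%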;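 note: all wells also contain fluconazole at 8 µg/ml as a sub-toxic cotreatment; 0% = median of DMSO wells and 100% = median of geldanamycin control wells; wells of about 8 µL received 7.5 nL stock; the first replicate is given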
Active calls of the source: *; ? = inconclusive; · = not tested or not shown.

SMILES | T cruzi inh | UCH37 DUB inh | Beta cell apopt | LANA-H2B inh | Bfl-1 A1 inh | RanGTP-Imp inh | B2AR ag | Calb FLC
CCOC(=O)C1=C(O)C(=O)N(Cc2cccnc2)C1c1ccc(C)cc1 (stereo unspecified) | -12 | 2.7 | -2 | 1.7 | -0.1 | 1.5 | 3 | 5
COc1ccc(CCC(=O)NC2=NCCS2)cc1OC | -1 | 1.6 | -12 | 2.3 | 0.6 | -5.1 | -11 | ·
COc1ccc2c(c1)CCCN2C(N)=O | -7 | 0.6 | -7 | 0.0 | -0.1 | -1.6 | 11 | 3
CC(=O)C1=C(C)Nc2ncnn2C1c1ccccc1OCc1ccccc1 (stereo unspecified) | 4 | -4.3 | -7 | -6.4 | 1.1 | 0.0 | 20 | 5
COc1ccccc1CNC(=O)C/C(C)=N/NC(=O)Cc1ccc(Cl)cc1 | 2 | · | -2 | -1.9 | 0.4 | -2.1 | -7 | -2
CN1C(=O)c2cccc3c(Br)ccc(c23)C1=O | 6 | -1.7 | 1 | -2.3 | -0.2 | 2.2 | 2 | 1
CS(=O)(=O)N1CCC(C(=O)NCCC2=CCCCC2)CC1 | -35 | 1.3 | 1 | 2.1 | 0.8 | ? | 4 | 1
O=C(Nc1ccnn1C1CCN(C2CCOCC2)CC1)c1cccc(F)c1 | -8 | 7.0 | -8 | 0.2 | -0.5 | 0.7 | 3 | 0
C=CCNc1nc(Nc2ccc([N+](=O)[O-])cc2)nc(OC)n1 | 3 | 5.7 | 14 | -0.6 | 1.4 | -0.6 | -5 | -4
Oc1ccc(NC(=S)Nc2ccc(F)cc2)cc1 | -7 | 5.3 | · | -1.0 | 0.8 | 0.3 | 4 | 1
Cc1ccc2[nH]c(=O)c(CN(CCN3CCOCC3)C(=O)Nc3ccccc3F)cc2c1 | -12 | -4.4 | · | · | · | -0.6 | -5 | 9
Cn1c(=O)c2c(nc(CN3CCN(C(=O)c4ccco4)CC3)n2Cc2cccc(Cl)c2)n(C)c1=O | 13 | 2.9 | 3 | -1.1 | 0.9 | -0.6 | -27 | -3
CN(C)Cc1c(C#N)c2ccccc2n1C | -5 | 3.1 | -3 | -4.0 | -0.1 | 3.9 | -4 | -9
CC(C)(C)NC(=O)CN(Cc1cccs1)C(=O)C1COc2ccccc2O1 (stereo unspecified) | 20 | 3.0 | -4 | -1.9 | 1.3 | 5.1 | -1 | -3
Cc1cc(C(=O)CN2c3cccc4cccc(c34)S2(=O)=O)c(C)n1C | · | -15 | 21 | 2.5 | 1.0 | · | 9 | ·
COc1cc(C(=O)Nc2nnc(C(C)(C)C)s2)c([N+](=O)[O-])cc1OC | -8 | 8.5 | 0 | -4.1 | -0.5 | 0.0 | -1 | 8
CC(/C=N/NC(=O)c1nnn(-c2nonc2N)c1C)=C\c1ccccc1 | -4 | · | 5 | 3.0 | -0.6 | -2.5 | -4 | 5
O=C(c1ccccc1Cl)N1CCN(S(=O)(=O)c2cccs2)CC1 | 1 | -2.6 | 0 | 5.0 | 0.2 | -1.8 | 6 | 4
COc1ccc(N2CC(C(=O)Nc3cccc(S(=O)(=O)N4CCCC4)c3)CC2=O)c(OC)c1 (stereo unspecified) | -9 | 3.1 | 1 | · | 0.5 | 2.3 | 1 | 6
CCCc1cc(-c2n[nH]c(C)c2-c2ccc(C(=O)OCC)o2)c(O)cc1O | -9 | -12 | 1 | 1.1 | 0.0 | ? | 4 | 39
COC(=O)c1ccccc1Oc1ccc(NC(=O)c2ccco2)cc1 | -6 | 2.0 | 3 | 0.8 | -1.2 | -0.2 | 15 | -4
COCCNC(=O)Nc1ccc(F)cc1 | -16 | 0.5 | 4 | -2.3 | -0.2 | -0.2 | 1 | 1
O=C(Nc1cccn2ncnc12)C(Cl)Cl | 12 | 3.5 | 0 | -1.4 | 1.0 | 1.9 | 1 | -4
CCOc1ccccc1-c1nc(-c2ccc(NC(=O)Cc3ccc(OC)cc3)cc2)no1 | 19 | 2.8 | 15 | -1.5 | 0.1 | -2.5 | -2 | 4
COc1cc(NC(=O)c2ccc(-c3cccc([N+](=O)[O-])c3)o2)ccc1NC(=O)C(C)C | 41 | 3.4 | 4 | 3.6 | -0.1 | 2.7 | 11 | -5
(cont.)
SMILES | T cruzi inh | UCH37 DUB inh | Beta cell apopt | LANA-H2B inh | Bfl-1 A1 inh | RanGTP-Imp inh | B2AR ag | Calb FLC
COc1ccc(CNC(=O)C(=O)NCC2OCCN2S(=O)(=O)c2ccc(C)cc2)cc1 (stereo unspecified) | 3 | -0.2 | 0 | 2.6 | 0.4 | -2.8 | -3 | 3
Nc1nnc(SCC(=O)NC2CCCCCCC2)s1 | -4 | 1.0 | -3 | -5.4 | 1.4 | 4.8 | -1 | -9
NCCCC[C@H]1CNC(=S)N1CCc1cccc(F)c1 | -4 | 5.4 | -7 | -2.5 | 0.8 | -5.6 | 2 | -15
CCOc1cc(CNCc2ccc(C(=O)O)cc2)ccc1OC | -6 | 1.4 | -8 | 5.4 | 0.1 | 4.6 | -2 | 0
O=C(Nc1ccc(S(=O)(=O)N2CCCC2)cc1)c1ccc2c(=O)n3c(nc2c1)CCCCC3 | -8 | -0.8 | 0 | 4.3 | 0.2 | 3.8 | 11 | 5
O=C(NCc1ccc(F)cc1)c1cc(S(=O)(=O)N2CCOCC2)ccc1F | 17 | 2.1 | -8 | 0.9 | -0.2 | ? | 1 | 0
CC(C)CCNC(=O)CN(Cc1ccco1)C(=O)CCC(=O)Nc1nccs1 | -5 | 0.5 | -4 | 5.7 | 0.5 | -2.9 | 12 | -13
O=C(COc1ccc(Br)cc1Cl)NC1CCN(Cc2ccccc2)CC1 | 61* | 7.7 | -4 | 1.0 | 0.1 | -4.8 | -1 | -4
Cc1ccc(N2C(=O)C(CN3CCCCC3)C2c2ccccc2)cc1 (stereo unspecified) | 32 | -0.4 | 4 | -2.7 | -0.1 | 3.0 | 6 | -13
Cc1c(C=O)c2ccccn2c1C(=O)c1ccncc1 | -13 | 11 | -8 | -0.9 | 1.8 | -5.3 | -2 | -34
CCOc1ccc(NC(=O)CSc2nnc(CCNC(=O)c3ccc(OC)cc3)n2C)cc1 | 9 | 1.3 | 3 | -4.1 | -0.1 | 7.1 | 8 | 5
CC(C)(C)CC(=O)NC(=S)NCCc1ccccc1 | 31 | -1.7 | 7 | -6.2 | 0.9 | 1.9 | -4 | -21
COc1ccc(CN2CCCCC2C)cc1OC (stereo unspecified) | 14 | 1.2 | 1 | -3.6 | -0.3 | 5.5 | -7 | 0
COC(=O)c1c(C)[nH]c(C(=O)CN2C(=O)NC3(CCOc4ccccc43)C2=O)c1C (stereo unspecified) | · | 0.6 | 2 | -2.0 | 0.1 | · | -2 | ·
Cc1ccc(C(=O)O)cc1NC(=S)NC(=O)c1ccc(COc2ccccc2)cc1 | -4 | 2.5 | 0 | -1.5 | -0.6 | -0.1 | 8 | 13
O=C(NCc1ccco1)c1ccccc1Nc1ccc(F)cc1 | -5 | 3.6 | -7 | -0.4 | 1.6 | · | -4 | -15
CN(C)c1ccc(/C=c2\sc3n(c2=O)CCCN=3)cc1 | 6 | · | 0 | -27 | -4.8 | -18 | -11 | 12
Cc1ccc(S(=O)(=O)N(C)C)cc1NC(=S)Nc1ccc2cn[nH]c2c1 | 1 | 0.8 | -35 | -1.6 | 0.6 | 1.3 | 5 | 19
COc1ccc(OCC(=O)N2c3ccccc3CCc3ccccc32)cc1 | 13 | 0.5 | 1 | 1.2 | 0.1 | 1.0 | 4 | 9
CCOC(=O)C1=C(COC(=O)c2cccc(Br)c2)NC(=O)NC1C (stereo unspecified) | 6 | 2.0 | -2 | -0.4 | -0.2 | 1.4 | -7 | -6
COc1ccccc1C(=O)N/C(=C/c1ccc2c(c1)OCO2)C(=O)Nc1ccc(C(=O)O)cc1 | -17 | 2.5 | 1 | 1.3 | 0.3 | -2.1 | 5 | 6
N#Cc1c(-c2ccccc2)oc(=O)c2ccccc12 | -6 | -12 | -7 | -1.4 | 0.1 | 3.7 | 2 | 4
Cc1nc2scc(-c3cccs3)c2c(=O)n1CC(=O)O | 2 | 3.1 | -7 | -2.4 | 0.0 | 1.0 | -5 | -3
c1ccc(N=Nc2cn[nH]c2-c2ccco2)cc1 | -6 | 3.3 | · | · | · | 1.7 | -10 | 26
COc1ccc(OC)c(S(=O)(=O)Nc2ccc3c(c2)n(C)c(=O)n3C)c1 | · | 1.7 | -15 | 6.5 | 0.9 | -4.0 | 4 | -1
More compounds
SMILES | T cruzi inh | UCH37 DUB inh | Beta cell apopt | LANA-H2B inh | Bfl-1 A1 inh | RanGTP-Imp inh | B2AR ag | Calb FLC
Cc1cc(NC(=S)Nc2cccnc2)ccc1Br | -18 | 0.9 | 5 | 4.3 | 0.7 | -0.9 | 2 | -16
O=C(N[C@@H](Cc1ccccc1)C(=O)OCC(=O)N1CCOCC1)c1cccs1 | -18 | -0.6 | -4 | -0.1 | 1.4 | -2.7 | -2 | 3
COc1ccc(Cl)cc1NC(=S)NCc1ccco1 | -6 | 5.5 | -2 | -1.1 | 0.3 | -5.6 | -1 | -4
COc1ccc(C(C2C(=O)CC(C)(C)CC2=O)C2C(=O)CC(C)(C)CC2=O)cc1CO | -2 | 1.1 | -12 | 8.4 | -0.3 | 6.8 | 2 | 2
COc1ccc(OC)c(-c2cc(C(=O)Nc3c(C)n(C)n(-c4ccccc4)c3=O)no2)c1 | -6 | 5.0 | -23 | 0.9 | 0.3 | 3.4 | 8 | ?
COc1ccccc1C(=O)NNC(=O)c1ccc(F)cc1 | -2 | 1.6 | 1 | 0.0 | -0.1 | -0.7 | 4 | -1
CCC(C(=O)Nc1cc(C)on1)c1ccccc1 (stereo unspecified) | -7 | 0.9 | -4 | -2.1 | -0.5 | 0.0 | -1 | 1
O=C(COC(=O)C1CC1)NCCc1ccccc1 | · | 3.0 | 11 | -8.9 | 0.3 | · | 0 | ·
CC[C@@H]1CC=C[C@H]2[C@H]1C(=O)N(Cc1ccccc1)[C@H]2c1ccoc1 | 42 | · | 6 | 9.2 | 0.3 | 5.3 | 24 | 7
CCOC(=O)c1[nH]nc(-c2c(O)cc(C)cc2O)c1-c1csc(C)n1 | -8 | 5.0 | -3 | -1.8 | 0.3 | 0.0 | 30 | 18
Cc1nn2c(nc1=O)SCC(c1ccccc1)=N2 | -14 | 5.2 | -1 | 3.5 | -3.4 | 5.3 | 5 | -2
CC(=O)OC(C[N+]1(C)CCCCCC1)c1ccccc1 (stereo unspecified) | 1 | 2.9 | 0 | 1.2 | 0.3 | -2.6 | -4 | 9
O=C(Nc1cccc(S(=O)(=O)N2CCOCC2)c1)c1ccc(Cl)nc1 | · | 4.0 | -5 | -2.1 | 0.7 | · | -6 | ·
COc1cccc2sc3ccc(C#CC4(O)CCCCC4)cc3c(=O)c12 | 46 | 2.5 | -2 | 4.4 | -0.3 | 49* | 12 | -20
COc1ccc(NS(=O)(=O)c2cccc(C(=O)N/N=C/c3ccccn3)c2)cc1 | -8 | · | -2 | -3.0 | 0.0 | -2.7 | -7 | 0
